YopH inh: YopH (Yersinia) phosphatase inhibition | actives 0.16% (n = 140,000) | inhibition, %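 (about 10 µM by stock and volumes)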 | fluorescence Ex485/Em525;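 active = inhibition of 50% or more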;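 also: controls were vehicle for no effect and minimum signal wells for full effect; inactives centre near -20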
Arbovirus inh: arbovirus infection inhibition; arbovirus infection cell-based antiviral screen; AID 1251; actives 0.37% (n = 200,000); inhibition, % at 10 µM;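 active = inhibition from about 30%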;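 also: bluetongue infection of BSR cells; cell survival read as ATP light after 72 h; 0% = infected wells without compound and 100% = uninfected wells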
Mtb H37Rv: M. tuberculosis H37Rv growth inhibitors, H37Rv strain (AID 1626). M. tuberculosis H37Rv growth inhibition; higher % means a stronger effect. inhibition, % at 10 µM, or IC50 in µM where a hit was titrated. actives 0.95% (n = 220,000);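 active = confirmed in a dose series; inconclusive = inhibition above 80% but not taken into the dose series; inactive = below 80% or under 30% at every dose of the series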;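 also: bacteria incubated seven days before Alamar blue readout; 0% = bacteria only wells and 100% = bacteria with antibiotic wells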
RecA intein inh: blocks M. tuberculosis RecA intein splicing | AID 2221 | P9WHJ3 | inhibition, %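 (about 9 µM by stock and volumes)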 | cell-free RecA intein splicing, fluorescence | actives 0.75% (n = 290,000); in the data active = inhibition above about 30%; inconclusive = no clear call, values can overlap the other calls;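 also: 0% = vehicle wells and 100% = reference inhibitor control wells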
Target sequence (P9WHJ3 whole entry, looked up): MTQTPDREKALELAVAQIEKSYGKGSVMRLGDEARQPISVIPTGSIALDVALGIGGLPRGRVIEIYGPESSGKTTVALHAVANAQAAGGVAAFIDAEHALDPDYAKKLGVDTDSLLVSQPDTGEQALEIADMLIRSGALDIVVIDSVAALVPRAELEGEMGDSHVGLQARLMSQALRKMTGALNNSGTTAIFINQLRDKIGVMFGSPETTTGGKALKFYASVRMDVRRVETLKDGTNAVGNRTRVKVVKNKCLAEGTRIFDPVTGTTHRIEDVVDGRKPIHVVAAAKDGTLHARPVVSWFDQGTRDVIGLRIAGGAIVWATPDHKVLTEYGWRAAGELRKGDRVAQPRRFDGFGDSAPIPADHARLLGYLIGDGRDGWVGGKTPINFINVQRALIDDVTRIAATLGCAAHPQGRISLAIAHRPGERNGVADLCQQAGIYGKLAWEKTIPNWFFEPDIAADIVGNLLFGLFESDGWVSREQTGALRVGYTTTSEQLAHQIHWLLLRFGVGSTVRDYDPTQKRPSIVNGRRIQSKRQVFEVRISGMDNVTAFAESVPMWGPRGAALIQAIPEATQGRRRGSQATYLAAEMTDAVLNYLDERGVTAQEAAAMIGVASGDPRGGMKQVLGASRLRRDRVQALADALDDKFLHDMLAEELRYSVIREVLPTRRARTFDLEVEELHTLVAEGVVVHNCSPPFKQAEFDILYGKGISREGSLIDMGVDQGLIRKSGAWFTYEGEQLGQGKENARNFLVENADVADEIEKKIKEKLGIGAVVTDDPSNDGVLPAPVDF
Mtb bLac sens: beta-lactam sensitization of Mtb H37Rv; M. tuberculosis H37Rv growth with meropenem, percent inhibition; hits of this screen are not shown here; inhibition, % at 25 µM; actives 0.27% (n = 330,000);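 active = about 74% or more and at least 40 points above the plate without the antibiotic, then above 30% in a dose series; inconclusive = first-round hits that could not be retested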;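 also: growth measured after seven days incubation then overnight dye step; 0% = bacteria only wells and 100% = bacteria with antibiotic; twin plates without the antibiotic show which effects depend on it; some results filed as inactive read as strong as hits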
Arbovirus inh repeat: second read-out of Arbovirus inh, no call of its own (marks repeat the call); inhibition, %; measured here: 10K subset replicate screen; many hits read low in the repeat;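 first of two repeat runs on a subset; 0% = infected and 100% = uninfected wells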
The depositor's hits bear a star; u = inconclusive; x = no result given. A portion of the library; rates above refer to the full screens.

SMILES	YopH inh	Arbovirus inh	Mtb H37Rv	RecA intein inh	Mtb bLac sens	others
CC(C)(C)OC(=O)N1CCC(C(=O)NNC(=O)c2ccc(Cl)cc2Cl)CC1	x	x	x	-0.6	4
CN(CCC#N)C(=O)c1ccc(CNS(=O)(=O)c2ccc(F)cc2)cc1	-4	-4	-6%	1.5	-1
O=C(NCC1CCCO1)c1ccccc1OCc1ccc(F)cc1 (configuration not stated)	x	x	x	0.7	2
CC(NC(=O)CCNC(=O)c1ccccc1Cl)c1ccc(-n2ccnc2)cc1 (configuration not stated)	x	x	x	4.0	-3
CCc1ccc(NC(=O)Cn2nnc(C(=O)NCCc3ccc(OC)c(OC)c3)c2N)cc1	x	x	x	2.1	4
CCOc1cc(/C=C2/C(=O)ON=C2C)ccc1OCc1ccc(F)cc1	-23	-9	1%	-1.8	6
COc1ccc(C2c3c(oc4ccccc4c3=O)C(=O)N2CCCN2CCOCC2)cc1 (configuration not stated)	-14	x	-23%	-1.5	u
CC1(C)C=Cc2c(ccc3c2OC[C@@H](c2ccc(O)cc2O)C3)O1	x	x	1%	-5.2	6
Cc1ccc(CSc2nccc(-c3c(C)nc4ccccn34)n2)cc1	x	x	34%	0.9	x
O=c1[nH]c(C2CCN(S(=O)(=O)c3ccccc3F)CC2)nc2c1nnn2Cc1ccc(OC(F)(F)F)cc1	x	x	x	2.2	5
COc1cc(NC(=O)c2cc([N+](=O)[O-])ccc2Br)ccc1NC(=O)c1ccco1	-21	5	65%	4.7	83
CCNc1cc(S(=O)(=O)C(F)(F)F)ccc1N	14	-5	17%	5.9	94
Cc1ccc(NC(=O)NC(=O)CSc2nnc(-c3ccc(OC(F)F)cc3)n2N)c(C)c1	-17	-4	6%	-2.7	3
NC(=O)COc1ccc(-c2noc(COc3ccccc3[N+](=O)[O-])n2)cc1	x	12	28%	-1.6	22
O=C(C/C=N\O)Nc1ccc(Oc2ccccc2)cc1	x	-11	u	-0.2	-2
O=C(CCCc1c[nH]c2ccccc12)N1CCOCC1	-25	5	-4%	-3.0	1
Cc1ccc(C2OCC3(CO)COC(c4ccc(C)cc4)N23)cc1 (configuration not stated)	-24	17	5%	5.5	7
COC(=O)CC1=NN(c2nc3ccccc3s2)C(=O)/C1=C/N(C)C	x	-2	-1%	-0.3	0
Cc1ccc(NC(=O)[C@@H](NC(=O)c2cccc(S(=O)(=O)N3CCOCC3)c2)C(C)C)cc1C	-21	-9	0%	14	8
COc1ccc2[nH]c(=O)c(-c3noc(-c4ccc(F)cc4)n3)cc2c1	-22	-15	-7%	-20	4
CC(C)c1nnc(NC(=O)c2nc(S(=O)(=O)Cc3ccc(F)cc3)ncc2Cl)s1	x	x	x	82*	1
Cc1ccc(S(=O)(=O)N2C(=O)CCC2C(=O)NCc2ccco2)cc1 (configuration not stated)	-101	11	1%	-1.3	0
COC(CNC(=O)c1ccc(CS(=O)(=O)c2ccc(C)cc2)o1)OC	x	x	x	0.9	2
COc1ccc(Nc2cc(=O)n(C3CCCCC3)c(=O)[nH]2)c(OC)c1	0	0	22%	0.2	-12
CSc1c(SCc2ccccc2)cnn(-c2ccccc2)c1=O	-17	-10	11%	1.0	13
SMILES	YopH inh	Arbovirus inh	Mtb H37Rv	RecA intein inh	Mtb bLac sens	others
O=C(c1cc(COc2ccc3ncccc3c2)on1)N1CCC(O)CC1	x	10	-4%	2.5	-2
Cn1nc2c3ccccc3n(Cc3ccc(F)cc3)c2nc1=S	x	x	3%	-2.5	-1
CCc1nnc(NC(=O)CSc2ccc(-c3nc4ccc(C)cc4[nH]3)cn2)s1	-2	-5	-2%	-1.6	10
CCN(C(=O)CN1CCOCC1)C1(C)C(=O)c2ccccc2C1=O	-19	-1	3%	-2.5	7
Cc1ccsc1C(=CCCN1CCC[C@@H](C(=O)O)C1)c1sccc1C	x	x	-7%	0.1	6
O=C(O)c1cccc(S(=O)(=O)NCCC(c2ccccc2)c2ccccc2)c1	x	8	-8%	4.0	3
CCOP(=O)(OCC)c1nc(-c2ccccc2Cl)oc1N1CCOCC1	x	-7	-2%	0.1	-1
COc1ccc(C(C)=O)cc1CN1C(=O)NC2(CCCCCCC2)C1=O	x	2	-11%	2.0	-5
CCN(CC)CCOC(=O)C12CC3CC(CC(C3)C1)C2	-39	2	-4%	0.3	-11
CN(C)/C=C/C(=O)c1ccc(Oc2ncccn2)cc1	x	-1	-2%	-1.2	-7
Cc1nc(SC(C)C(=O)NCC2CCCO2)c2cc(-c3ccccc3)sc2n1 (configuration not stated)	x	x	x	-1.8	2
N=C1C(c2nc(-c3ccc(Cl)cc3)cs2)=C(O)CN1CCCN1CCOCC1	-2	1	-9%	-2.9	77
Cc1[nH]c2ccccc2c1C(=O)NS(=O)(=O)Nc1ccccc1	x	4	2%	-1.0	2
CN(CC(=O)NCc1ccccc1Cl)CC(=O)Nc1cccc(F)c1	x	1	4%	0.0	-3
CC(NC(=O)CNC(=O)Cc1cccc2ccccc12)c1ccc(S(N)(=O)=O)cc1 (configuration not stated)	x	x	x	0.3	-4
Clc1ccc(OCCSc2ncccn2)c2ccccc12	20	-16	1%	5.0	2
O=C(COC(=O)C1CCN(S(=O)(=O)c2ccccc2)CC1)NC(=O)c1ccc(OC(F)F)cc1	-27	9	5%	2.0	5
CCOc1c(Cl)cc(C2NC(=O)NC(C)=C2C(=O)NCc2ccccc2)cc1OC (configuration not stated)	-15	-2	-2%	-3.3	1
CCC(C)Sc1ccc([C@@H]2[C@@H]3C(=O)N(C)C(=O)[C@@H]3[C@]3(C(=O)OC)CCCCN23)cc1OC (some centres not stated)	x	x	x	6.8	-3
Cc1ccc(-c2nnn(CCC(=O)Nc3ccc4c(c3)OCO4)n2)cc1	-42	-9	31%	2.8	-3
COc1cccc(NC(=O)CNC(=O)c2ccc(C)o2)c1	x	x	x	-2.4	-6
CN1C(=O)S/C(=C\c2ccc(-n3cncn3)cc2)C1=O	x	0	7%	1.6	0
COc1ccccc1CNC(=O)c1cccc(NC(=O)c2ccccc2)c1	x	-21	7%	0.3	-3
Cc1ccccc1C(=O)Nc1ccc(Cl)cn1	-2	-7	-2%	-2.6	-8
CC1=N/C(=C/c2ccco2)C(=O)O1	x	5	1%	2.5	x
SMILES	YopH inh	Arbovirus inh	Mtb H37Rv	RecA intein inh	Mtb bLac sens	others
Cc1ncsc1C(=O)Nc1cccc(C(F)(F)F)c1	x	x	x	0.4	-2
O=C(O)COc1ccc(/C=C2/SC(=S)N(Cc3ccccc3)C2=O)cc1	x	x	x	53*	0
C=CCN1C(=O)/C(=C2/Sc3ccc(OC)cc3N2C)SC1=Nc1ccc(OC)cc1	x	0	78%	0.4	-4
COc1ccc(OC)c2c(C)cc(N3CCN(C(=O)c4ccc(C)cc4)CC3)nc12	x	-7	2%	-4.8	-5
O=C(O)Cc1ccc(-n2cccc2)cc1	x	8	2%	-8.8	-6
COc1ccc(-c2nn(-c3ccccc3)cc2C(=O)N2c3ccc(C)cc3C3CN(C)CCC32)cc1 (configuration not stated)	x	-30	7%	0.7	6
O=C(c1c[nH]c2ccccc12)C(Cl)c1ccccc1 (configuration not stated)	x	x	x	2.3	90
O=C(O)c1cccc(NC(=S)NC(=O)C(c2ccccc2)c2ccccc2)c1	-33	0	-5%	6.8	0
Cn1c(=O)c2c(SCC(=O)NCc3ccco3)nc(-c3ccccc3Cl)nc2n(C)c1=O	x	x	x	3.3	6
CCn1c(SCC(=O)NCc2ccco2)nnc1-c1cccs1	6	11	8%	x	-6
CC(C)(C)[Si](OCC[C@@H]1C[C@@]1(C)[C@@H](NP(=O)(c1ccccc1)c1ccccc1)c1ccccc1)(c1ccccc1)c1ccccc1	-41	-19	34%	x	x
COc1ccc(O)c(-c2cc(-c3ccccc3[N+](=O)[O-])[nH]n2)c1	-11	21	6%	-0.6	-1
Cn1c(=O)c2c(SCC(=O)N3CCCC3)nc(-c3ccccc3)nc2n(C)c1=O	x	x	x	0.2	-1
O=C(C1CC(c2ccc(Cl)c(Cl)c2)=NO1)N1CCC2(CC1)OCCO2 (configuration not stated)	-63	6	-3%	0.6	7
COc1ccc(-c2nnc(SCc3ccc(C(=O)O)cc3)n2C)cc1OC	x	x	x	-5.4	2
COc1cc(NC(=O)COC(=O)CCc2cc(OC)c(OC)c(OC)c2)cc(OC)c1	x	0	4%	0.4	6
COc1ccc(NC(=O)CC23CC4CC(CC(C4)C2)C3)cn1	x	-13	3%	2.6	-5
COc1ccc(SCc2noc(C(=O)NC(C)C)c2C(=O)O)cc1	0	18	-6%	-1.2	8
CSc1nc2sccc2c(=O)[nH]1	x	8	1%	-0.2	-10
CC(=O)Oc1ccc(C(C)=O)c2c1OCCO2	-3	13	10%	0.5	2
Cc1ccc(C)c(NC(=O)CSc2cccc3cccnc23)c1	x	x	x	-4.2	2
O=C1N[C@@H](Cc2cn(S(=O)(=O)c3ccc([N+](=O)[O-])cc3)c3ccccc23)C(=O)N[C@H]1Cc1ccccc1	x	x	13%	-1.5	-2
CCO[C@H]1OC(C(=O)N2CCN(Cc3ccc4c(c3)OCO4)CC2)=C[C@@H](C2CCCCC2)[C@@H]1CCCO	x	-18	2%	0.5	10
Cc1cc(C)c2c(N=NN(C)C)[nH]nc2n1	-14	-10	5%	4.8	37
COc1cc(OC)cc(-c2nc(-c3cc4cc(C)ccc4nc3OC)no2)c1	-16	-4	2%	-0.9	x

A portion from the list above, for reference:
SMILES	YopH inh	Arbovirus inh	Mtb H37Rv	RecA intein inh	Mtb bLac sens	others
CCOc1c(Cl)cc(C2NC(=O)NC(C)=C2C(=O)NCc2ccccc2)cc1OC (configuration not stated)	-15	-2	-2%	-3.3	1
CCC(C)Sc1ccc([C@@H]2[C@@H]3C(=O)N(C)C(=O)[C@@H]3[C@]3(C(=O)OC)CCCCN23)cc1OC (some centres not stated)	x	x	x	6.8	-3

Later entries
SMILES	YopH inh	Arbovirus inh	Mtb H37Rv	RecA intein inh	Mtb bLac sens	others
CCOc1cc2[nH]c(=O)n(Cc3ccc(C(=O)NCCOC)cc3)c(=O)c2cc1OCC	-33	-3	x	-3.0	-5	Arbovirus inh repeat=0
COC(=O)c1cc(C(=O)NCCCN2CCOCC2)cc([N+](=O)[O-])c1	x	4	5%	0.2	-2
N#C/C(=C(/O)CSc1ncn[nH]1)c1nc2ccccc2[nH]1	x	29	-3%	-11	-6
CCCS(=O)(=O)c1nc(S(=O)(=O)c2ccc(C)cc2)c(N2CCN(C)CC2)s1	x	x	x	0.4	6
NS(=O)(=O)c1ccc(CCNCc2ccccc2OCc2ccc(Cl)cc2)cc1	x	x	x	2.1	5
C=CCNC(=O)c1ccc(-c2nc(-c3ccc(Cl)cc3Cl)cs2)cc1	-40	1	-5%	1.6	10
COc1ccc(/C=C(\NC(=O)c2cccs2)C(=O)NCc2ccco2)cc1OC	x	x	-4%	-0.4	-1
COc1ccccc1/C=N/NC(=O)c1ccc(CN2C(=O)c3cccc4cccc2c34)cc1	x	x	2%	-34	1
Cc1ccc(S(=O)(=O)NCC(=O)OCN2C(=O)c3ccccc3C2=O)cc1	-5	5	-6%	-0.3	-1
CCN1CCN(c2nc3ccccc3nc2C(C#N)S(=O)(=O)c2ccc(C)cc2)CC1 (configuration not stated)	-13	12	x	-1.8	-17
O=C(CSc1nc2ccccc2[nH]1)NC1CCCC1	x	10	6%	0.8	-7
S=C(NCc1ccccc1)N1CCn2cccc2C1c1ccncc1 (configuration not stated)	x	11	4%	9.4	7
Cc1ccc2nc(-c3ccc(SCC(=O)N4CCc5ccccc54)nc3)[nH]c2c1	-30	-14	11%	1.2	3
CCn1c(=O)cc(OCC(=O)Nc2ccc(C)cn2)c2ccccc21	-9	-6	-10%	-4.1	-22
CCC(=O)N(CCc1ccccc1)Cc1cc2cc(OC)ccc2[nH]c1=O	x	x	-2%	0.0	-2
CCN(C(=N)N=C(N)N)c1ccccc1	x	-3	-1%	-0.2	1
CC1CCC(NC(=O)c2ccc(NS(=O)(=O)c3ccc4[nH]c(=O)[nH]c4c3)cc2)CC1 (configuration not stated)	x	x	x	-2.3	-1

6 compounds from above, arranged by molecular weight, low to high.
SMILES	YopH inh	Arbovirus inh	Mtb H37Rv	RecA intein inh	Mtb bLac sens	others
CCn1c(=O)cc(OCC(=O)Nc2ccc(C)cn2)c2ccccc21	-9	-6	-10%	-4.1	-22
CCC(=O)N(CCc1ccccc1)Cc1cc2cc(OC)ccc2[nH]c1=O	x	x	-2%	0.0	-2
Cc1ccc(S(=O)(=O)NCC(=O)OCN2C(=O)c3ccccc3C2=O)cc1	-5	5	-6%	-0.3	-1
Cc1ccc2nc(-c3ccc(SCC(=O)N4CCc5ccccc54)nc3)[nH]c2c1	-30	-14	11%	1.2	3
CC1CCC(NC(=O)c2ccc(NS(=O)(=O)c3ccc4[nH]c(=O)[nH]c4c3)cc2)CC1 (configuration not stated)	x	x	x	-2.3	-1
CCCS(=O)(=O)c1nc(S(=O)(=O)c2ccc(C)cc2)c(N2CCN(C)CC2)s1	x	x	x	0.4	6

Screening data: PubChem, several laboratories
